rRNA inh HTS = inhibitors of bacterial rRNA selective over humanized ribosomes. E. coli WT GFP vs humanized-ribosome RFP mutants, fluorescence, 24 h; hits give low values; DMSO median 0, no signal -100. GFP signal change (wild-type ribosome), % (test concentration not listed). actives 1.6% (n = 350,000);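 active = significant combined selectivity score with lowered wild-type GFP, culture density cut under 30%, mutant RFP and density less affected; inactive = any of these conditions unmet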; note: one replicate is shown; some compounds called inactive have numbers as strong as hits
RanGTP-Impb inh = inhibitors of RanGTP-importin-beta interaction, primary screen, biochemical, FRET, CFP-Ran, YFP-importin-beta, homogeneous | actives 1.1% (n = 300,000) | inhibition, % (test concentration not listed) | cell-free CFP-Ran/YFP-importin-beta FRET ratio | AID 2216;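 active = most replicates above 15%; inconclusive = exactly half above 15%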;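 note: 0% = DMSO wells and 100% = Ran loaded with GDP instead of GTP; wells of about 40 µL received 100 nL stock; the first replicate is given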
Beta apoptosis = beta cell apoptosis inhibition. INS-1E cytokine-induced death, ATP luminescence, 48 h; percent of positive-control rescue, neutral wells zero. protection from apoptosis, % (test concentration not listed). actives 0.8% (n = 300,000);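 active = all replicates at 75% or more, or half of them and the mean; inconclusive = half reach 75% but not the mean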;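 note: 0% = cytokine-treated negative control wells and 100% = positive control rescue; higher means more ATP so stronger rescue from cytokine killing; wells of about 40 µL received 100 nL stock; the first replicate is given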
ALR H2O2 inh = inhibitors of human sulfhydryl oxidase ALR; P55789; AID 485317; actives 3.8% (n = 290,000); inhibition, % (concentration not given with the values); purified ALR, DTT oxidation, H2O2 HRP-luminol luminescence;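 active = mean and each replicate at 75% or more; inconclusive = only one of the two met; inactive = neither met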;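 note: stock transfer was 7.5 nL into about 7.5 µL; 0% = neutral wells and 100% = wells with inactivated enzyme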
Target sequence (P55789 whole entry, looked up): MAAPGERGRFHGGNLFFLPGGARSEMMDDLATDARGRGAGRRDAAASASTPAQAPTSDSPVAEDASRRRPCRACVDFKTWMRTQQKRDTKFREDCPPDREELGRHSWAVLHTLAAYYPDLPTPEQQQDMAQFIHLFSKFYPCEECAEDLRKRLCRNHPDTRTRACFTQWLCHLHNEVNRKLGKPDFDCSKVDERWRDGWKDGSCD
FGF22 binding = binders of recombinant human FGF22 by thermal shift; SYPRO orange fluorescence; percent of sucrose octasulfate shift, DMSO zero; Q9HCT0; calls only at 9.99 µM; actives 1.5% (n = 340,000);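 active = melting point raised past a set limit in the mean and every replicate; inconclusive = no clear call; three in four hits are not shown here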
Target sequence (Q9HCT0 whole entry, looked up): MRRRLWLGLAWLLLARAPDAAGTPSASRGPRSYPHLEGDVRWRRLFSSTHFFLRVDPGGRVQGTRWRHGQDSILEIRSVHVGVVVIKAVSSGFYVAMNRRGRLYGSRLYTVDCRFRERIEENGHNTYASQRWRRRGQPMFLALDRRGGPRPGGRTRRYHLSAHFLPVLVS
T cruzi repl = blocks replication of Trypanosoma cruzi; T. cruzi beta-gal in NIH3T3, luminescence, 90 h; inhibition, % (test concentration not listed); actives 1.4% (n = 300,000); AID 1885;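 active = mean inhibition across valid replicates above about 55%, limit read from the data; inconclusive = mean below that limit but half or more replicates reach it; inactive = mean below it, under half of replicates reach it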;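 note: signal also drops with host cell toxicity which is not excluded here; 0% = plate median of DMSO wells and 100% = zero luminescence signal; higher percent means less beta-gal luminescence so fewer parasites; stock transfer was 50 nL into about 50 µL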
AF4-AF9 inh = blocks AF4 peptide binding to human AF9 | AlphaScreen, biotin-AF4 peptide binding to FLAG-AF9 | actives 0.47% (n = 350,000) | inhibition, % at 10 µM | P42568;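 active = every replicate reaching a set inhibition limit, whatever the replicate mean, cut at about 25% in these data; inconclusive = mean inhibition reaches that limit but some replicates miss it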;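 note: 0% = plate neutral control median and 100% = total signal loss; the record names both 10 and 1 µM as test concentration; the first replicate is given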
Target sequence (P42568 whole entry, looked up): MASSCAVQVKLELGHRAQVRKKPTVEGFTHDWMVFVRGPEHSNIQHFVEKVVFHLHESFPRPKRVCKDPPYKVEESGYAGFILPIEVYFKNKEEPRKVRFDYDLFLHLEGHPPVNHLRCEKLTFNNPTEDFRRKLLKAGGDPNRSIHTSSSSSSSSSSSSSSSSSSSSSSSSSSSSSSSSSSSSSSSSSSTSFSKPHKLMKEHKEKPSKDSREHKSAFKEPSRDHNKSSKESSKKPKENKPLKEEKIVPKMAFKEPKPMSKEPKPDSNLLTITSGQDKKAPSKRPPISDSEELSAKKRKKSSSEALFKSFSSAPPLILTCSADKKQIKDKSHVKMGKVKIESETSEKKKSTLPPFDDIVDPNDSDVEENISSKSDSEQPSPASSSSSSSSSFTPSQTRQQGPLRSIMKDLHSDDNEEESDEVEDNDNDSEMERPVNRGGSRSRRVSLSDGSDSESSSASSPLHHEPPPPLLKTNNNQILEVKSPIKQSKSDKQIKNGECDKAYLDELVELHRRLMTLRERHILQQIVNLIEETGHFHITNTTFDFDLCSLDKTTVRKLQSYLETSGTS
Calb FLC = affects C. albicans growth with fluconazole; C. albicans CaCi-2 (fluconazole-resistant clinical isolate) + fluconazole, Alamar Blue growth, 48 h; growth inhibition, % (concentration not given with the values); actives 0.57% (n = 300,000);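 active = most replicates above 75%; inconclusive = exactly half above 75%; inactive = most below 75%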;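 note: all wells also contain fluconazole at 8 µg/ml as a sub-toxic cotreatment; 0% = median of DMSO wells and 100% = median of geldanamycin control wells; wells of about 8 µL received 7.5 nL stock; the first replicate is given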
rRNA inh HTS OD600 = further read-out of rRNA inh HTS, marked with its call; OD600 change, %; measured here: OD600 growth;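 optical density of the mix in the first replicate; 0 = DMSO median and -100 = no signal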
rRNA inh HTS RFP = second read-out of rRNA inh HTS, no call of its own (marks repeat the call); RFP signal change, %; measured here: RFP humanized mutant strains;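 first replicate; 0 = DMSO median and -100 = no signal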
Starred values were filed as active, the others as inactive; i = inactive; ? = inconclusive; nt = not tested or not shown.

SMILES | rRNA inh HTS | rRNA inh HTS OD600 | rRNA inh HTS RFP | RanGTP-Impb inh | Beta apoptosis | ALR H2O2 inh | FGF22 binding | T cruzi repl | AF4-AF9 inh | Calb FLC
CCOC(=O)Cc1csc(NC(=O)COc2ccc(N(C)S(=O)(=O)c3cccs3)cc2)n1 | nt | nt | nt | ? | -10 | -6 | nt | -2 | nt | -3
Cc1ccc(C)c(N2CCN(C(=O)c3ccc(CS(=O)Cc4ccc(Cl)cc4)o3)CC2)c1 (stereo not drawn) | -2 | -8 | 2.7 | 2.5 | 0 | -8 | i | -6 | -4.5 | 21
O=c1n(-c2cccc(Cl)c2)c(=O)n2n1CCC2 | nt | nt | nt | 1.2 | -3 | -6 | nt | -12 | nt | -6
COc1ccc(CNC(=O)CS(=O)Cc2nc(-c3ccc(C)cc3)oc2C)cc1 (stereo not drawn) | -3 | -8 | -3.5 | 2.4 | -2 | 99* | i | -24 | 4.6 | -7
CN(CC(=O)Nc1ccccc1C(=O)N1CCCC1)S(=O)(=O)c1ccc(Br)cc1 | nt | nt | nt | ? | 1 | -15 | nt | -4 | nt | 5
O=C(NNC(=S)NC(=O)c1ccccc1)c1ccc(O)cc1 | -44 | -66 | -4.0 | 0.7 | 11 | 99* | i | -18 | -0.2 | 0
O=C(CSc1nnc(-c2ccncc2)o1)N1CCCC1 | 8 | 5 | -2.7 | 8.2 | 6 | -1 | i | -7 | -3.2 | 15
CCN(C(=S)Nc1cccnc1)c1cccc2ccccc12 | 77 | -3 | 62 | 0.5 | -2 | -16 | i | 2 | -1.0 | 22
COC(=O)Cc1c(C)c2ccc(OCC(=O)N3CCCC(C)C3)c(C)c2oc1=O (stereo not drawn) | -2 | -8 | 3.5 | nt | 5 | -7 | i | 14 | -6.3 | nt
CCOc1cc(N2CCOCC2)c(OCC)cc1NC(=O)c1cc(C)nc2ccccc12 | -3 | 0 | -0.3 | -3.0 | 7 | -9 | i | -8 | 1.2 | -5
CC(C)(C)CC(=O)NC(=S)Nc1ccccc1[N+](=O)[O-] | nt | nt | nt | 4.0 | 4 | 1 | nt | -2 | 2.8 | 4
CC(C)(C)C(=O)NC(=S)Nc1cccc(C(=O)O)c1 | 13 | 5 | -3.0 | 1.1 | 1 | -42 | i | -17 | -4.3 | 16
CCN(CC(=O)Nc1ccc(Cl)c(C(F)(F)F)c1)CC(=O)NC1CCS(=O)(=O)C1 (stereo not drawn) | 0 | 11 | -0.6 | -0.3 | 4 | -21 | i | -1 | -0.5 | -3
CN(CC1CCCO1)S(=O)(=O)c1ccc(C(=O)Nc2nc3cc4c(cc3s2)OCO4)cc1 (stereo not drawn) | -5 | -4 | -5.5 | 4.9 | 9 | -11 | i | 14 | -11 | 1
N=c1oc2ccc(Br)cc2cc1C(=O)NCc1ccc(F)cc1 | 0 | 6 | 0.3 | 1.7 | -6 | -4 | i | -3 | -4.0 | -7
O=C(Oc1ccc(Cl)c2cccnc12)N1CCOCC1 | nt | nt | nt | 11 | -5 | -4 | nt | -5 | nt | -8
CCC(C)Nc1nc(CN2CCOCC2)nc2sc3c(c12)CCC3 (stereo not drawn) | nt | nt | nt | -2.8 | -10 | 31 | nt | 38 | nt | 24
O=C(Nc1ccc(Cn2cccn2)cc1)c1ccc(COc2cccc(Br)c2)cc1 | nt | nt | nt | 4.7 | -2 | 8 | nt | 14 | nt | 0
CNc1nc(Nc2ccccc2)nc(OCC(F)(F)F)n1 | -14 | -10 | -5.2 | -3.5 | 1 | -2 | i | -15 | -4.3 | 17
C=CCOc1ccc(C(c2c(O)nc(SC)[nH]c2=O)c2c(O)nc(SC)[nH]c2=O)cc1 | -4 | 3 | 1.1 | 3.4 | -5 | 90* | i | -12 | 0.4 | -3
O=C(COc1ccc(F)cc1)Nc1nc(-c2ccccn2)cs1 | -52 | -77 | -14 | 0.9 | 2 | -11 | i | 41 | -2.0 | 90*
CSc1nnc(C2CCN(CC(=O)Nc3ccccc3N3CCOCC3)CC2)n1C | -3 | 6 | -0.1 | -3.2 | 2 | nt | i | -9 | 2.0 | 0
CCOC(=O)CCc1nc2ccccc2[nH]c1=O | nt | nt | nt | -2.7 | -5 | nt | nt | -5 | nt | 7
COc1ccc(S(=O)(=O)NCC(=O)N(CC(=O)NCc2ccco2)Cc2ccc(F)cc2)cc1 | 3 | 3 | -0.6 | -0.5 | -3 | -2 | i | -3 | -2.2 | 12
N#Cc1ccccc1S(=O)(=O)Nc1ccc2c(c1)OCCO2 | 5 | -3 | 1.5 | -3.1 | 0 | -4 | i | 0 | 4.6 | -5

(more compounds)
SMILES | rRNA inh HTS | rRNA inh HTS OD600 | rRNA inh HTS RFP | RanGTP-Impb inh | Beta apoptosis | ALR H2O2 inh | FGF22 binding | T cruzi repl | AF4-AF9 inh | Calb FLC
O=C(O)c1ccc(-c2nc3ccccc3[nH]2)cc1 | 16 | -1 | -0.8 | -2.8 | nt | 27 | i | -5 | 3.0 | 1
CC(=O)NN1C(=O)/C(=C/c2ccc(C(C)C)cc2)SC1=S | nt | nt | nt | -0.5 | -1 | 98* | nt | 1 | nt | 3
COc1cc([N+](=O)[O-])ccc1NC(=O)CN(C)C | 18 | 11 | -0.1 | 6.0 | -1 | 0 | i | 4 | -26 | -3
Oc1ccccc1C1=Nc2ncnn2C(c2ccccc2)C1 (stereo not drawn) | nt | nt | nt | -12 | -4 | 2 | nt | -14 | nt | 8
Cc1cc(C)c(C(=O)N2CCCC(C(=O)c3cc(F)ccc3F)C2)o1 (stereo not drawn) | -7 | -14 | -2.6 | 1.7 | -3 | -1 | i | 5 | 0.6 | 0
CC1CCc2c(nc3ncnn3c2Nc2ccc(OC(F)(F)F)cc2)C1 (stereo not drawn) | nt | nt | nt | 0.2 | 11 | nt | nt | -1 | nt | 8
COc1ccc(Nc2ccc([N+](=O)[O-])cn2)cn1 | 9 | 4 | 11 | -2.8 | -4 | -23 | i | -14 | 1.7 | -7
CCCC1N2CC3([N+](=O)[O-])CN1CC([N+](=O)[O-])(C2)C3(C)C (stereo not drawn) | 17 | 5 | -0.3 | -2.4 | 3 | nt | i | 2 | -4.4 | 1
COc1cccc2cc(C(=O)NC(C)C3CCCO3)c(=O)oc12 (stereo not drawn) | nt | nt | nt | 2.6 | -3 | -10 | nt | -7 | nt | 3
CCCC(=O)c1cc2c(cc1NC(=O)c1ccccc1F)OCCO2 | 4 | 3 | -1.5 | -0.1 | 0 | -3 | i | 34 | -1.9 | 3
CNc1oc(-c2cccc3ccccc23)nc1C#N | nt | nt | nt | 6.3 | -1 | -1 | nt | 1 | nt | 22
N#CCCN(C(=O)COC(=O)c1nc(Cl)ccc1Cl)c1ccccc1 | 9 | 12 | -2.1 | -1.6 | 6 | -2 | i | -9 | -20 | 0
CCN1CCN(c2ccc(S(=O)(=O)N3CCOCC3)cc2NC(=O)C(C)Oc2ccc(Cl)cc2)CC1 (stereo not drawn) | 1 | -4 | 1.4 | 1.1 | nt | -1 | i | 35 | -26 | -5
O=C(NCC1CCCO1)c1c(O)c2c([nH]c1=O)CCCC2 (stereo not drawn) | nt | nt | nt | 0.8 | -7 | -10 | nt | -1 | nt | 9
CCNc1c([N+](=O)[O-])ncn1C | nt | nt | nt | 2.0 | -2 | nt | nt | -16 | nt | -2
CCCOc1ccc(C(C)=O)cc1CSCCC#N | nt | nt | nt | 2.7 | nt | -24 | nt | 1 | nt | -4
O=S(=O)(NCCOc1ccc(F)cc1)c1ccc2c(c1)OCCO2 | nt | nt | nt | 4.9 | -1 | nt | nt | -16 | nt | -10
O=C(CCC(=O)OCc1ccc(C(=O)Oc2ccccc2)cc1)Nc1cccc2ccccc12 | nt | nt | nt | -3.8 | 1 | -18 | nt | -15 | nt | ?
Cc1ccccc1CN1C(=O)Nc2ccccc2C(=O)N1C(C)(C)C | nt | nt | nt | -3.7 | 0 | -9 | nt | -19 | nt | -24
Cc1cc(SCC(=O)NCCN2C(=O)CSC2=O)nc2ccccc12 | nt | nt | nt | -2.0 | -2 | -2 | i | -17 | -3.3 | -10
Cc1ccc(C)c(S(=O)(=O)Nc2ccc(O)c(Sc3ncn[nH]3)c2)c1 | -6 | 0 | -0.7 | -1.4 | -3 | 99* | i | 7 | nt | 4
C=CCc1c(OC)ccc2ccc(=O)oc12 | nt | nt | nt | 0.9 | -5 | -13 | nt | -5 | nt | 8
COc1ccc(NC(=S)NC(=O)Cc2ccccc2)c(OC)c1 | -10 | -6 | -4.1 | ? | 2 | -10 | i | -6 | 0.7 | 1
CN1CCC(N(C)C(=O)c2cc(S(=O)(=O)N3CCOCC3)ccc2Cl)CC1 | nt | nt | nt | nt | 2 | -7 | i | nt | -3.5 | nt
C=CCOc1ccc(C(=O)n2cc(C(=O)OC)c3ccccc32)cc1 | 7 | 7 | -2.6 | -7.0 | -8 | -20 | i | 3 | -4.3 | -19

Other structures
SMILES | rRNA inh HTS | rRNA inh HTS OD600 | rRNA inh HTS RFP | RanGTP-Impb inh | Beta apoptosis | ALR H2O2 inh | FGF22 binding | T cruzi repl | AF4-AF9 inh | Calb FLC
CCOc1ccc(NC(=O)CSc2nc3c(c(=O)n2-c2ccccc2OC)SCC3)cc1 | -2 | 5 | -2.4 | ? | 2 | 93* | i | 11 | 6.0 | 11
S=c1[nH]nc(C2CCCCC2)n1/N=C/c1ccc(Cl)cc1 | 9 | 8 | 1.3 | 8.6 | 4 | 3 | i | 3 | -4.5 | 10
O=C(O)c1ccc(N2C(=O)CC(N3CCN(c4cccc(Cl)c4)CC3)C2=O)cc1 (stereo not drawn) | 5 | 11 | -0.3 | -0.4 | 0 | 1 | i | -9 | 0.8 | 12
C=CCn1c(SCC(=O)Nc2nncs2)nnc1-c1ccco1 | 2 | -3 | -3.7 | 1.9 | 1 | nt | i | -4 | 3.5 | 3
Cc1cc(C)cc(NC(=O)N2CCC(C(=O)c3ccc(F)cc3)CC2)c1 | -29 | -49 | -6.6 | 0.5 | 4 | 3 | nt | -9 | -1.6 | 0
CC1CC(C)(C)CC2(C1)NC(=O)N(CC(=O)Nc1ccc(N3CCCCC3)cc1)C2=O (stereo not drawn) | -7 | -34 | -2.8 | 0.3 | 0 | 24 | i | 16 | 12 | 9
CCOc1c(Br)cc(/C=N\NC(=O)c2ccccc2)cc1OC | -15 | -18 | -6.2 | -2.4 | 3 | nt | i | 4 | 5.6 | 35
O=c1oc(Nc2ccc(F)cc2)nc2ccccc12 | nt | nt | nt | -0.7 | -2 | -2 | nt | -17 | nt | 6
Cc1ccc(/C=N/NC(=O)C2CC(=O)N(c3ccccc3)C2)s1 (stereo not drawn) | nt | nt | nt | -2.3 | -5 | -4 | nt | 1 | nt | 8
CCOC(=O)N1CCN(C(=O)CSc2ccccc2)CC1 | nt | nt | nt | ? | -12 | -4 | nt | 8 | nt | 7
Cc1ccc(S(=O)(=O)N2CCOCC2)cc1C(=O)OCC(=O)N(Cc1ccccc1)C(C)C | -9 | -19 | 3.5 | nt | 3 | -15 | i | nt | 4.8 | nt
O=C(COC(=O)CNS(=O)(=O)c1ccccc1)NC12CC3CC(CC(C3)C1)C2 | 13 | 8 | 2.6 | 2.0 | -8 | 0 | i | -7 | -0.3 | -15

Not all compounds are listed; rates above refer to the full screens.
